Compound activity from PubChem.
PINK1 expr mod = A Quantitative High throughput Screen to Identify Chemical Modulators of PINK1 Expression; 410,000 compounds, 0.2% hits; AID 624263, 2012; PINK1 immunofluorescence, high-content cytometry, 24 h; Potency, µM (titrated, usually from 76.6 µM), inactives show at the top dose activation (PINK1 increase), hits mostly activators; active = well fitted activation curve with a large enough effect; inconclusive = small, poorly fitted or top-dose-only effect; inactive = flat fitted curve, though single readings scatter; cell line not stated here;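 note: potency is the fitted concentration of half-maximal effect; % of control where 0% means no effect; nearly all actives have a fitted effect of over 65% in size; a mitochondrial uncoupler was the plate control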
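Readout is PINK1 immunofluorescence, quantified alongside mitochondrial, cell and nuclear markers by laser-scanning microplate cytometry. Cells from a stable line were exposed to compound titrations (5 concentrations) for 24 hours, with CCCP controls.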
Sfp inh = qHTS Assay for Inhibitors of Bacillus subtilis Sfp phosphopantetheinyl transferase (PPTase). Potency, µM, for the others: max response, negative = inhibition, usual class: inhibitors. Biochemical Sfp PPTase activity, qHTS. AID 1490, 2009. 4'-phosphopantetheinyl transferase ffp (Bacillus subtilis), Q9F4F7. 310,000 compounds, 3.5% hits; active = well fitted inhibition curve with a large enough effect; inconclusive = small, poorly fitted or top-dose-only effect, or another doubt; inactive = no such curve, though single readings can be large or run the other way;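 note: the enzyme is Sfp with the accession as filed and its product quenches rhodamine fluorescence; potency is the fitted concentration of half-maximal effect; 0% = enzyme reaction without inhibitor and -100% = no enzyme wells; top concentration of the series not given in the record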
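Reaction rates are the 30-min fluorescence difference (ex 525, em 598 nm) in wells containing 15 nM Sfp, 5 uM rhodamine-CoA and 12.5 uM BHQ-2-YbbR at pH 7.6 with 10 mM MgCl2.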
TRPML1 ag = qHTS for Agonists of the Human Mucolipin Transient Receptor Potential 1 (TRPML1); Mucolipin-1 (Homo sapiens), Q9GZU1; TRPML1-expressing cells, Ca2+ dye fluorescence, FDSS; host cell line not named in the record; reference of the full effect not given here; activation, % (test concentration not listed); 410,000 compounds, 0.12% hits; AID 624414, 2012; in the data active = activation above about 50%; inconclusive = about 30% to 50%; inactive = below about 30%; note: 0% is about no effect; the text of the record puts the active cut at 80%
Target sequence (Q9GZU1 whole entry, looked up): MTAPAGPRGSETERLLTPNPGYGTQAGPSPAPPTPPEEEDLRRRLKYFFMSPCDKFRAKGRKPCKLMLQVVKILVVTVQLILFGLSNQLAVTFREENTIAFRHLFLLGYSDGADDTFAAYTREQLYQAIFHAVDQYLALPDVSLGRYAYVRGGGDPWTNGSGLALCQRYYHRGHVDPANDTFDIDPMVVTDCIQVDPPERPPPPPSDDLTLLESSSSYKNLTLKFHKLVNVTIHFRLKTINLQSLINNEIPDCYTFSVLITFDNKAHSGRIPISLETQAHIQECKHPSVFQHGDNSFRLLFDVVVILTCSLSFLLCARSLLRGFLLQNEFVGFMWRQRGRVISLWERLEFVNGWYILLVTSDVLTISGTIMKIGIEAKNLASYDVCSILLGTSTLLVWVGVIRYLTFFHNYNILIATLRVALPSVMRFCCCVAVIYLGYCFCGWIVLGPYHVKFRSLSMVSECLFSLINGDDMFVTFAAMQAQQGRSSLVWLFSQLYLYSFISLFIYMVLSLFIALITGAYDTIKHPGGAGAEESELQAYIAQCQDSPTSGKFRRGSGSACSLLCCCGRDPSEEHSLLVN
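In this qHTS format, compounds were pin-transferred onto Ca8-dye-loaded TRPML1-DL cells induced with Tet overnight, and intracellular Ca2+ fluorescence was recorded kinetically for 110 s after a 10 s baseline. A subsequent 4uM final 54-4 (EC80) addition followed by a second 110 s read served as the antagonist phase.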
ClpP mod = qHTS Assay for Activators of ClpP; purified B. subtilis ClpP, FRET peptide cleavage, 20 min; ATP-dependent Clp protease proteolytic subunit (Bacillus subtilis (strain 168)), P80244; 340,000 compounds, 1.9% hits; AID 651965, 2013; Potency, µM (titrated, usually from 57.5 µM), without a hit: at the highest dose activity change, negative = active; active = well fitted falling curve with a large enough effect; inconclusive = small, poorly fitted or top-dose-only effect; inactive = no such curve, though single readings can be large or run the other way; note: potency is the fitted concentration of half-maximal effect; the source files actives as falling curves though it sought activators and does not explain the sign; nearly all actives have a fitted effect of over 65% in size; many hits overshoot -100%
Target sequence (P80244 whole entry, looked up): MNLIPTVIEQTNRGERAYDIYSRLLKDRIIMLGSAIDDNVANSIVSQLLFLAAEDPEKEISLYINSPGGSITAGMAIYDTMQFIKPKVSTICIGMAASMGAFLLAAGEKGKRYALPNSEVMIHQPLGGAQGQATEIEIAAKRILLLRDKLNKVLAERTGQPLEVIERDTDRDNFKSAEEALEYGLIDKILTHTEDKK
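Buffer: 100 mM Tris/HCl pH8, 100 mM KCl, 0.05% low protease BSA, 2.5% glycerol, 0.01% Tween-20. ClpP 10 microg/mL final; 20 min RT; delta FRET normalized to ADEP and DMSO controls.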
TRPML1 inh = qHTS for Inhibitors of the Human Mucolipin Transient Receptor Potential 1 (TRPML1); Mucolipin-1 (Homo sapiens), Q9GZU1; TRPML1-inducible cells, Ca2+ dye fluorescence, FDSS; stronger effect = lower value; inhibition of EC80 agonist-evoked calcium signal; activity change, negative = inhibition, % (test concentration not listed); 390,000 compounds, 0.02% hits; AID 624415, 2012; in the data active means activity change below about -50%; inconclusive means about -30% to -50%; inactive means above about -30%;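 note: stimulus is agonist 54-4 at its EC80 concentration; % is set by controls: 0 for no effect and ±100 for the full control effect; compound concentration not given in the record; the text of the record puts the active cut at -80%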
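TRPML1-DL cells, Tet-induced overnight (~16 h, 37 °C) at 1,500 cells/well, were loaded with Ca8 no-wash dye plus quencher for 45-90 min at room temperature. Compounds were pinned during FDSS kinetic reading; agonist 54-4 at EC80 (4 uM final) then added.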
TRPV1 PAM = HTS Assay for Compounds that Act as Potentiators of the Vanilloid Receptor 1. 320,000 compounds, 0.02% hits. Transient receptor potential cation channel subfamily V member 1 (Homo sapiens), Q8NER1. potentiation, % at 8.33 µM. AID 540277, 2011. TRPV1-expressing cells, Fluo-8 calcium influx, capsaicin EC20 potentiation; host cell line not named in the record; control for the full effect not named in the record; active means potentiation above 80%; inconclusive means 30% to 80%; inactive means below 30%; note: 0% is about no effect
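Fluo-8 calcium influx in TRPV1-expressing cells, kinetic read (ex 480/em 520 nm). Compound added and read 3 min for agonist activity, followed by capsaicin at EC20 final and 2 min further read for enhancement.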
Menin-MLL FL inh = qHTS Assay for Inhibitors Targeting the Menin-MLL Interaction in MLL Related Leukemias: Competition With Fluorescein Labeled MLL-derived Peptide; 290,000 tested, under 10 active; Fluorescence polarization, fluorescein-MLL peptide displacement from menin; FP activity change, % at 61.4 µM; inconclusive = falling polarisation curve, or a change in total fluorescence; inactive = total fluorescence flat and polarisation flat or rising; no compound was filed as active; the % refers to the polarisation; negative = inhibition;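 note: % of control where 0% means no effect; inhibitors lower the polarisation; unlabelled MLL peptide was the positive control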
* = called active by the depositor; ? = inconclusive; / = not tested or not shown; [ ] = dose if it differs, or a comment.

Compound	PINK1 expr mod	Sfp inh	TRPML1 ag	ClpP mod	TRPML1 inh	TRPV1 PAM	Menin-MLL FL inh
CC1=C(C(=O)N(C)C)CC(CC(=O)NCCCN(C)C)C(=O)N1Cc1ccccc1 (centres undefined)	0.3%	/	-0.5	0.7%	-1.1	/	/
CCOC(=O)C1=C(C)N(C)C(C)=C(C(=O)OCC)C1c1cccnc1	0.0%	-0.8%	-0.1	-2.1%	-8.3	10.2	-1.3
O=C(NNC(=S)Nc1ccc(Cl)c(Cl)c1)c1cccc([N+](=O)[O-])c1	?	-17.2%	1.5	/	-11.3	-6.5	-0.2
Cn1nc(C(=O)NCc2ccccc2)c2c1-c1ccccc1SC2	2.1%	/	1.3	-2.0%	0.8	/	/
CCCSc1ccc([C@@H]2[C@H]3C(=O)N(CC)C(=O)[C@H]3[C@]3(C(=O)OC)CCCCN23)cc1	8.5%	/	-0.1	-0.3%	42.6	7.9	/
COCCNC(=O)C(C)N(c1ccc(Oc2ccccc2)cc1)S(C)(=O)=O (centres undefined)	0.5%	5.8%	-0.6	-1.6%	-2.9	-15.1	-0.9
COc1ccc(C2C=C(c3ccc(Br)cc3)Nc3nc(N4C(=O)CCC4=O)nn32)cc1 (centres undefined)	5.9%[38.3 µM]	-24.1%	1.5	139.7%	17.8	/	?
COc1cc(Cl)c(C)cc1NC(=O)Cn1ncc2c([nH]c3ccccc32)c1=O	3.4%	/	2.9	-1.1%	14.5	/	/
Cc1nn(CC(=O)O)c(C)c1C	0.8%	-2.1%	-0.8	1.6%	1.3	-3.9	3.0
CCOC(=O)c1sc(NC(=O)c2ccc(OC)cc2)nc1C	6.3%	1.0%	0.3	/	-8.4	-1.8	4.8
O=C(Nc1ccc(O)cc1)C1CC=CCC1 (centres undefined)	0.0%	-4.5%	1.1	-0.5%	13.2	-1.0	-0.6
Cc1cc(C(=O)N2CCN(c3ncccn3)CC2)cs1	?	12.0%	0.0	-8.6%	3.4	5.8	1.6
CC(=O)Nc1ccc(S(=O)(=O)N2CCn3cccc3C2C)cc1 (centres undefined)	0.7%	/	1.1	-1.2%	-3.2	13.9	/
Cc1sc(NC(=O)c2ccccc2)c(C(c2ccc(Cl)cc2)N2CCN(CCO)CC2)c1C (centres undefined)	-0.6%	?	2.1	-2.4%	-4.1	7.2	8.7
CCC(NC(=O)c1ccc(C#CC2(O)CCCCC2)cc1)C(=O)O (centres undefined)	-0.9%	7.9%	0.9	/	-8.4	9.4	0.6
COc1cc(/C=C/C(=O)Nc2ccc(S(=O)(=O)Nc3ncccn3)cc2)ccc1OCC#N	1.0%	/	-0.9	-8.9%	5.4	/	/
COCc1nnc(SCC(=O)Nc2cccc(Cl)c2C)n1-c1ccccc1	-2.0%	-0.4%	-0.7	-1.4%	33.9	-9.3	-1.4
CCOC(=O)c1cccc(NC(=O)c2ccc(N(C)C)cc2)c1	-0.9%	-9.4%	2.4	-3.1%	4.2	-19.3	11.3
Cc1cccc(C)c1NC(=O)c1cc2c(=O)c3ccccc3oc2nc1C(F)(F)F	?	-14.5%	-0.5	-0.7%	4.4	-24.0	5.7
O=C(O)c1cc2cc(OCc3ccccc3)ccc2[nH]1	2.4%[38.3 µM]	-1.7%	0.2	28.2µM*	0.7	8.3	-3.4
CCC(NS(=O)(=O)c1ccc2c(c1)NC(=O)C(C)C(=O)N2)c1cccs1 (centres undefined)	4.5%	15.8%	0.1	0.4%	2.6	-2.4	-4.3
O=C(CCN1C(=O)C2CCCCC2C1=O)N1CCN(S(=O)(=O)c2cccc(F)c2)CC1 (centres undefined)	0.3%	/	-0.2	0.5%	-11.4	2.1	/
COc1ccc(Cl)cc1C(=O)NCCS(=O)(=O)N1CCN(c2ccccc2OC)CC1	12.8%	/	1.5	-1.7%	44.9	/	/
COC(=O)C1=C(C)N(Cc2ccccc2)C(=S)N[C@H]1c1cccc(C(F)(F)F)c1	16.7%	11.6%	0.1	-2.2%	-13.0	1.5	2.1
CC(CC(=O)Nc1ccc(-c2ccno2)cc1)n1cccn1 (centres undefined)	-0.1%	9.1%	0.0	-4.2%	1.5	3.0	39.8[activator]
Nc1nc2c(nc(SCc3ccccc3Br)n2[C@@H]2O[C@H](CO)[C@@H](O)[C@H]2O)c(=O)[nH]1	2.9%	-3.1%	0.2	/	12.4	-10.7	0.4
C=CCn1nc(-c2ccccc2)c2c(C)onc2c1=O	-1.0%	17.7%	0.0	-0.2%	5.4	10.5	0.2
CC1CCN(c2nc3c(c(=O)n(C)c(=O)n3C)n2Cc2ccccc2)CC1	-0.8%[38.3 µM]	-3.2%	-0.3	-3.2%	-20.6	-9.7	5.3
Cc1onc(-c2c(Cl)cccc2Cl)c1C(=O)NCCCN1CCOCC1	-0.1%	4.5%	-0.2	0.1%	-3.7	-11.2	1.4
Cc1ccc(C(=O)Nc2ccc(S(=O)(=O)N3CCc4ccccc43)cc2)o1	-1.9%[38.3 µM]	7.7%	0.8	-1.5%	31.7	-8.0	0.5
CCn1cc([N+](=O)[O-])c(C(=O)Nc2ccc3c(c2)OCCO3)n1	/	24.2%	-0.3	-3.4%	-7.2	-36.8	4.3
O=C(NCCc1ccccc1)C(=O)NCC1OCCN1S(=O)(=O)c1ccc2c(c1)OCCO2 (centres undefined)	9.3%	9.7%	0.7	1.6%	-1.2	-12.3	/
C=CCSc1nnc(-c2cc3c(-c4ccccc4)nn(C)c3s2)n1C	2.1%	-13.8%	2.9	28.2µM*	14.4	-5.6	-2.7
CC(=O)Nc1ccc(S(=O)(=O)N2CCN(C(=O)c3ncoc3-c3ccc(F)cc3)CC2)cc1	1.8%	3.6%	0.3	/	0.9	-3.5	1.5
CCOc1ccccc1NC(=O)CSC1=Nc2ccccc2C2=NC(CC(=O)NC3CCCCC3)C(=O)N12 (centres undefined)	-0.3%	/	0.5	-2.0%	13.7	/	/
COc1ccc(S(=O)(=O)NCC2(N3CCOCC3)CCCCC2)cc1OC	-2.3%	/	0.9	/	2.6	-22.8	/
COc1ccc(CNCCC2(Cc3ccccc3)CC(C)N(C)CC2C)cc1OC (centres undefined)	6.5%	5.1%	0.4	2.6%	-6.0	4.2	-0.5
Cc1csc2c(=O)n3c(nc12)CCCCC3	7.3%[38.3 µM]	3.3%	1.6	-0.7%	30.2	1.9	2.4
O=C(c1cccc(S(=O)(=O)Nc2ccc(F)cc2)c1)N1CCOCC1	0.4%	/	0.2	0.1%	-9.7	-1.7	/
CC(C)C1C(C#N)=C(N)Oc2n[nH]c(-c3ccccc3)c21 (centres undefined)	-1.3%	1.2%	1.0	-2.6%	-10.2	-3.5	0.3

Reprinted at random: 3 compounds from above, in no set order.
Compound	PINK1 expr mod	Sfp inh	TRPML1 ag	ClpP mod	TRPML1 inh	TRPV1 PAM	Menin-MLL FL inh
Nc1nc2c(nc(SCc3ccccc3Br)n2[C@@H]2O[C@H](CO)[C@@H](O)[C@H]2O)c(=O)[nH]1	2.9%	-3.1%	0.2	/	12.4	-10.7	0.4
COC(=O)C1=C(C)N(Cc2ccccc2)C(=S)N[C@H]1c1cccc(C(F)(F)F)c1	16.7%	11.6%	0.1	-2.2%	-13.0	1.5	2.1
COc1ccc(CNCCC2(Cc3ccccc3)CC(C)N(C)CC2C)cc1OC (centres undefined)	6.5%	5.1%	0.4	2.6%	-6.0	4.2	-0.5

Going on with the list:
Compound	PINK1 expr mod	Sfp inh	TRPML1 ag	ClpP mod	TRPML1 inh	TRPV1 PAM	Menin-MLL FL inh
CCn1c(SCC(N)=O)nc2sc3c(c2c1=O)CCCC3	-0.6%	17.5%	-0.2	-1.0%	-11.9	-7.2	1.0
Cc1ccc(CNC(=O)c2nn(C)c(C)c2[N+](=O)[O-])cc1	1.9%	9.4%	-0.3	0.7%	-9.3	-1.4	-0.5
COc1ccc(Cl)cc1NC(=O)Nc1ccc(C(=O)N2CCOCC2)cc1	0.8%	-0.8%	-0.2	-1.9%	-10.0	9.4	/
Cc1c(NC(=O)C2CCN(S(=O)(=O)c3ccc(Cl)cc3)CC2)c(=O)n(-c2ccccc2)n1C	3.8%[38.3 µM]	15.3%	1.5	0.4%	11.9	-4.8	3.0
CCOc1ccc(S(=O)(=O)Nc2ccc(C(=O)NCC(c3ccc(OC)cc3)N3CCOCC3)cc2)cc1 (centres undefined)	0.8%	/	0.5	-0.6%	1.6	/	/
COc1cc(OC)cc(-c2c(C#Cc3ccsc3)c3cc(-c4ccc5c(c4)OCO5)ccc3n2C)c1	0.4%	/	-0.3	4.1%	-5.6	/	/
COc1ccccc1OCCSc1nnnn1-c1ccc(C)cc1	1.1%	-8.4%	1.2	-1.4%	19.4	15.2	-3.5
COc1ccccc1C(=O)NCCC(=O)NCCOc1ccc(C)cc1	1.2%	/	-0.8	-1.2%	2.1	/	/
COCCCNC(=O)c1ccccc1N(Cc1ccccc1)S(=O)(=O)c1ccc(OC)cc1	3.2%	23.6%	-0.5	-1.8%	9.3	13.1	-1.1
